CDC25B CDK2 inh: primary biochemical HTRF screen for blockers of M-phase inducer phosphatase 2 binding to CDK2/cyclin A; z-score (test concentration not listed); 94,000 tested, 0.72% active; P30305+P24941; AID 1259370, 2018; HTRF CDC25B-CDK2/CyclinA binding, anti-His/anti-Flag; hits give high values;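 also: score is relative to mean and SD of negative controls; strong numbers were not always called active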
HIV TAR-Tat: TAR RNA-Tat peptide displacers, HIV-1, primary screen, biochemical, FRET, FAM/TAMRA-labeled Tat; HIV-1 TAR RNA, Tat peptide displacement FRET; hits give high values; z-score (concentration not given with the values); 100,000 tested, 0.6% active;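 also: score is relative to mean and SD of negative controls; some compounds called inactive have numbers as strong as hits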
Active calls of the source: *; · = not tested or not shown.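 The calls were made as follows: active = z-score from 3 up in half or more of its runs; inactive = the rest.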

entry	Structure	CDC25B CDK2 inh	HIV TAR-Tat
1	Brc1csc(CN2CCc3nc(Nc4ccc5c(c4)OCO5)ncc3C2)c1	·	0.32
2	Cc1ccc(NC(=O)N2Cc3cccn3-c3cccnc32)c(C)c1	-0.2	0.62
3	CC(C)CNC(=O)c1cc(C2CC2)on1	-0.28	-0.54
4	N#C/C(=C\Nc1cccnc1)S(=O)(=O)c1ccc(Cl)cc1	-2.1	·
5	O=C(CCCn1sc2ccccc2c1=O)NCC1CCCO1 (stereo not drawn)	-0.44	·
6	Cc1cc(CNC(=O)NCC(C)C)c(C)n1-c1cccc(Cl)c1	-0.74	-0.33
7	COc1cc(OC)cc(-c2cc3nc(C)c(CCC(=O)Nc4nc(C)cs4)c(C)n3n2)c1	-1.3	·
8	CCN(CC)S(=O)(=O)c1ccc(S(=O)(=O)N2CCC(C(=O)O)CC2)cc1	-2.1	-0.46
9	Cc1ccc(Cn2c(CO)nc3ccccc32)cc1	-0.57	1.1
10	Cc1cccc(OCc2nnc3sc(-c4cccnc4)nn23)c1	-0.35	0.81
11	Cn1c(=O)oc2cc(S(=O)(=O)N3CCCC3c3ccccc3Cl)ccc21 (stereo not drawn)	-3	0.53
12	COc1ccc(-c2noc(COc3cc(C)ccc3C)n2)cc1	0.01	·
13	CCOc1cc(C2c3c(oc4ccccc4c3=O)C(=O)N2c2nc(C)c(C)s2)ccc1O (stereo not drawn)	-0.39	0.2
14	CCCN(CCC)C(=O)c1sc2nc3n(c(=O)c2c1C)CCCCC3	·	2.2
15	CCOC(=O)c1cnn2c1NC(c1ccccc1)CC2C(F)F (stereo not drawn)	-0.62	0.23
16	Cc1cc(C)cc(NC(=O)NCc2cccn2Cc2cc(C)ccc2C)c1	·	0.34
17	Cc1c(C(=O)NCCCN2CCOCC2)oc2c1-c1[nH]ncc1CC2	0.9	-1
18	Cc1cc(C(=O)O/N=C(\N)COc2ccc([N+](=O)[O-])cc2)no1	-0.63	·
19	COc1ccc(C2CC(=O)C3=C(C2)Nc2ccccc2NC3c2ccc(F)c(F)c2)cc1 (stereo not drawn)	-0.16	0.05
20	O=C(O)CN1C(=O)c2cccc3cccc1c23	-1.2	1
21	Cc1cc(N(C)C)n2nc(Cc3ccccc3)nc2n1	0.13	1.7
22	CSc1ccccc1NC(=O)Cn1nc([N+](=O)[O-])c(Cl)c1C	-1.2	1.5
23	CCC1(CC)Cc2ccccc2C(NC(=O)N2CCCCC2)=C1C#N	-0.38	1.2
24	CCN1C(=O)c2n[nH]c(C(=O)OC)c2C1=O	0.09	·
25	O=S(=O)(c1ccc2c(c1)CCO2)N1CCCN(c2ccc(C(F)(F)F)cn2)CC1	0.28	·
26	Cc1c(C(=O)O)[nH]n(-c2ccc(F)cc2)c1=O	-1.7	-0.14
27	CCCCCOC(=O)C1=C(C)OC23OC(N)=C(C#N)C12C(=O)c1ccccc13 (stereo not drawn)	0.35	·
28	O=C(Cn1nnc(N2CCCC2)n1)c1ccc(Cl)cc1	-0.5	·
29	O=C(CCC(=O)N1CCSc2ccccc21)N1CCOCC1	·	0.99
30	Cc1ccc(-c2noc(CSc3nnc(C)n3-c3cccc(C)c3)n2)cc1	-1.5	0.63
31	COC(=O)c1ccc(S(=O)(=O)NCCN2CCNC2=O)n1C	-0.78	·
32	CCc1ccc2oc(C(=O)Nc3nnc(CC(C)C)s3)cc(=O)c2c1	-2	0.52
33	CCOc1ccc(S(=O)(=O)N2CCCC2c2ccco2)cc1 (stereo not drawn)	-2.8	0.77
34	COC(=O)C(=O)NCC1COc2ccccc2O1 (stereo not drawn)	0.48	0.78
35	COc1ccc(Br)cc1C1OC(c2ccc(C)nc2)=NN1C(C)=O (stereo not drawn)	·	0.59
36	CCCSc1ncc(Cl)c(C(=O)Nc2nnc(C)s2)n1	-1.4	0.84
37	CN(C)S(=O)(=O)c1ccc(Nc2nc3ccccc3n3nnnc23)cc1	-0.04	1.4
38	Cc1ccc(-c2c(NCc3ccco3)c(=O)c2=O)cc1	·	0.8
39	O=C(CSc1nnc(-c2ccccc2F)o1)N1CCc2ccccc21	-0.31	0.85
40	CCOC(=O)C(Cc1cccc(C(=O)OC)c1)NC(=O)c1ccccc1 (stereo not drawn)	-3.5	·
41	CCOC(=O)CN(C(C)=O)c1oc(C)c(C(=O)OCC)c1C#N	-0.14	2.4
42	COc1cc(OC)cc(C(=O)Nc2nnc3n2CCS3)c1	·	1.1
43	Cc1ccc(-c2noc(-c3nnn(-c4cccc(C)c4)c3N)n2)cc1	·	-1.5
44	Cc1sc2ncn(CC(=O)NCCN3CCOCC3)c(=O)c2c1S(=O)(=O)N1CCC(C)CC1	-0.13	0.73
45	Cc1ccc2n1CCn1cc(-c3ccccc3)cc1-2	·	-5.6
46	CC1CCCC(C)N1C(=O)c1cc2n(n1)C(C(F)(F)F)CC(c1ccc(Cl)cc1)N2 (stereo not drawn)	1.8	1.7
47	CCOC(=O)c1c(CN2CCCCC2C)oc2ccc(OC)cc12 (stereo not drawn)	-0.68	1.5
48	Cn1c(=O)n(Cc2ccc(F)cc2)c(=O)c2c1nc1n2CCN1c1ccc(F)cc1	·	2.4
49	N#C/C(=C\N1CCC(C(F)(F)F)CC1)S(=O)(=O)c1ccccc1	-2	·
50	CN1C(=O)c2ccccc2Sc2cc(-c3noc(C4CC4)n3)ccc21	·	1.9

(continued)
entry	Structure	CDC25B CDK2 inh	HIV TAR-Tat
51	O=C(NCc1nnnn1-c1ccccc1)C(=O)c1c[nH]c2ccccc12	·	0.2
52	COc1ccc(C(C)=O)cc1CSC(=S)N1CCSCC1	-1.8	·
53	CC(C)c1c(O)ccc2c1CCC1C(C)(C)CCC[C@]21C (stereo partly drawn)	·	1.2
54	N#Cc1nc(/C=C/c2ccccc2Cl)oc1N1CCN(C(=O)c2cccs2)CC1	-2.2	0.81
55	O=C1Nc2ccccc2/C1=N\N=C\c1cc(Br)ccc1O	-1.2	·
56	O=C1CC(/C=C/c2ccccc2)Cc2nc(N3CCN(c4ccccn4)CC3)ncc21 (stereo not drawn)	-2.6	0.77
57	COC(=O)Cc1cc(=O)n2[nH]c(NCc3cccs3)nc2n1	-2.2	1.7
58	CCOc1ccc(CN2CCc3nc(N4CCC(C)CC4)ncc3C2)cc1OC	·	0.61
59	CCCN1CCN(c2ncnc3c2nc2n3CCCC2)CC1	·	1.9
60	Cc1cc(C)c(NS(=O)(=O)c2ccc(-c3ccc(=O)[nH]n3)o2)c(C)c1	·	2.2
61	CC1(C)CC(=O)C2=C(C1)Nc1ccccc1N(S(C)(=O)=O)C2c1cccs1 (stereo not drawn)	·	-1.5
62	Cc1ccc(NCc2c(CO)cnc(C)c2O)cc1C	·	0.37
63	O=C(Cn1nc(-c2ccco2)ccc1=O)NCC1CCCO1 (stereo not drawn)	·	0.83
64	CC1=NOC2(O)CC3C(C12)C3(C)C (stereo not drawn)	-1.4	·
65	CCc1ccc(S(=O)(=O)Nc2ccc(-c3ccc(OC)nn3)cc2)cc1	·	-0.18
66	CCC(=O)N1CCc2cc(Br)cc(S(=O)(=O)N3CCCC3c3cc(C)no3)c21 (stereo not drawn)	·	0.92
67	CCCNC(=O)CCCn1nc(C)c2sc3ccccc3c2c1=O	-1.8	2.1
68	Cc1ccc(NS(=O)(=O)c2cc(-c3ccc(=O)[nH]n3)ccc2C)cc1	-2.2	-0.55
69	CN1CCN(C(=O)c2cnn(-c3ccc(Cl)cc3)c2C2CCNCC2)CC1	·	0.02
70	CC1=NN(c2cccc(C(=O)O)c2)C(=O)/C1=C\c1ccc(-c2ccc(Cl)c(C(=O)O)c2)o1	-1.9	·
71	COC(=O)C/C(=N\Nc1cc(C(F)(F)F)cc(C(F)(F)F)c1)C(=O)OC	-1.2	·
72	O=C(Nc1ccncc1)c1cccc(-n2cnnc2)n1	·	0.78
73	O=C(c1cnn2c(C(F)(F)F)cc(-c3ccc(Br)cc3)nc12)N1CCCC1	-1.9	0.29
74	COc1cc(NS(=O)(=O)c2c(C)nc3sccn3c2=O)cc(OC)c1	·	-0.66
75	O=C(OCCOCCN=C1NS(=O)(=O)c2ccccc21)c1ccccc1	-0.82	-0.81

By substructure, the compounds so far with a COOH group
entry	Structure	CDC25B CDK2 inh	HIV TAR-Tat
8	CCN(CC)S(=O)(=O)c1ccc(S(=O)(=O)N2CCC(C(=O)O)CC2)cc1	-2.1	-0.46
20	O=C(O)CN1C(=O)c2cccc3cccc1c23	-1.2	1
26	Cc1c(C(=O)O)[nH]n(-c2ccc(F)cc2)c1=O	-1.7	-0.14
70	CC1=NN(c2cccc(C(=O)O)c2)C(=O)/C1=C\c1ccc(-c2ccc(Cl)c(C(=O)O)c2)o1	-1.9	·

The results go on.
#	compound	CDC25B CDK2 inh	HIV TAR-Tat
76	CCOC(=O)c1oc2ccc(S(=O)(=O)N3CCCC3c3ccc(Cl)cc3)cc2c1C (stereo not drawn)	-3.4	0.72
77	COC(=O)C1C2C=CC3(CN(CCc4ccccc4)C(=O)C13)O2 (stereo not drawn)	-1.8	2
78	CCC(Sc1nncn2c1cc1occc12)C(=O)Nc1c(C)cc(C)cc1C (stereo not drawn)	·	1.2
79	O=[N+]([O-])c1ccsc1NCc1ccccc1	-1.1	·
80	Cc1ccc2c(c1)cc1c(=O)n(Cc3ccccc3C)nc(C)n12	-0.54	-1.4
81	COc1ccc(NC(=O)CCc2nnc3ccc(N4CCCC4)nn23)cc1OC	·	1.1
82	CC(=O)Nc1ccc(C)cc1[N+](=O)[O-]	-2.5	·
83	S=C(Nc1cc(Cl)ccc1Cl)Nn1cnnc1	-2.3	·
84	Cc1ccc(OCCSc2ncn(-c3cc(C)nc(N)n3)n2)cc1	-1.1	0.83
85	O=C(NC1CCCCCC1)C1CCN(C(=O)c2sccc2-n2cccc2)CC1	-1.2	·
86	O=C(COc1ccccc1)OCC(=O)N1c2ccccc2Sc2ccccc21	0.09	·
87	Cc1ccc2[nH]c(CSCC(=O)Nc3nnc(C(C)C)s3)cc(=O)c2c1	·	-1.2
88	CC(CS(=O)(=O)c1ccc2c(c1)NC(=O)C(C)S2)C(=O)N1CCN(c2ccccc2F)CC1 (stereo not drawn)	·	0.52
89	O=C(NC1CCCCC1)C1=Cc2sc3c(c2CS1)CCCC3	·	-1.6
90	COC(=O)c1ccc(C2CC(=O)NC3=C2C(=O)CC(c2ccccc2Cl)C3)cc1 (stereo not drawn)	1.3	0.02
91	CCOC(=O)c1cc(CC)sc1NC(=O)c1cccnc1Oc1ccccc1	-0.64	·
92	CCCCC1(C)OC(=O)C(=Cc2ccc(OCc3ccc([N+](=O)[O-])cc3)c(OCC)c2)C(=O)O1 (stereo not drawn)	-1.9	·
93	CC(Sc1nc2ccccc2c(=O)[nH]1)C(=O)Nc1ccccc1F (stereo not drawn)	-5.5	·
94	Cn1c(=O)[nH]c(=O)c2c1nc(N1CCOCC1)n2CCCSc1ncccn1	-1.9	2
95	c1ccc2sc(SCCCN3CCCCC3)nc2c1	-1.7	1.9

Brought forward from above: 6 compounds; new compounds follow.
#	compound	CDC25B CDK2 inh	HIV TAR-Tat
90	COC(=O)c1ccc(C2CC(=O)NC3=C2C(=O)CC(c2ccccc2Cl)C3)cc1 (stereo not drawn)	1.3	0.02
91	CCOC(=O)c1cc(CC)sc1NC(=O)c1cccnc1Oc1ccccc1	-0.64	·
92	CCCCC1(C)OC(=O)C(=Cc2ccc(OCc3ccc([N+](=O)[O-])cc3)c(OCC)c2)C(=O)O1 (stereo not drawn)	-1.9	·
93	CC(Sc1nc2ccccc2c(=O)[nH]1)C(=O)Nc1ccccc1F (stereo not drawn)	-5.5	·
94	Cn1c(=O)[nH]c(=O)c2c1nc(N1CCOCC1)n2CCCSc1ncccn1	-1.9	2
95	c1ccc2sc(SCCCN3CCCCC3)nc2c1	-1.7	1.9
96	COc1ccc2c(c1)c(=O)oc1c(C)c3occ(-c4ccc(F)cc4)c3cc12	0.34	-0.15
97	O=[N+]([O-])c1cccnc1Sc1cccs1	-1.8	·
98	N#C/C(=C\Nc1ccc(F)c(Cl)c1)S(=O)(=O)Cc1ccco1	1	·
99	O=C(Cn1c(=O)n(Cc2ccco2)c(=O)c2sc3ccccc3c21)NCCC1=CCCCC1	0.5	-2.7
100	CC1CCN(c2oc(-c3ccco3)nc2S(=O)(=O)c2ccc(Cl)cc2)CC1	-1.5	-1.1
101	O=c1[nH]c2ccc(S(=O)(=O)N3CCc4ccccc4C3)cc2s1	·	-0.02
102	COCc1c(Br)c(C)nc2sc3c(c12)NCN(c1ccccc1)C3=O	-7.1	-0.78
103	Nc1nnc(SCC(=O)Nc2ccccc2)s1	-0.75	-0.11
104	COc1cccc2c1Oc1ncccc1N(C(=O)Nc1ccc3c(c1)OCCO3)C2	·	0.59
105	CCOC(=O)N1CCN(Cc2nc3c(c(=O)n(C)c(=O)n3C)n2Cc2cccc3ccccc23)CC1	0.7	-0.17
106	C#CCOC(=O)c1ccc(S(=O)(=O)N2CCOCC2)cc1	-1.6	3.1
107	CCCNC(=O)Cn1nc(CC)n2c(cc3ccccc32)c1=O	-1.2	1
108	CC1=C(C(=O)OCc2ccccc2)C(c2cccc3ccccc23)C2=C(CCCC2=O)N1 (stereo not drawn)	-0.67	·
109	CCC(=O)Nc1c2c(nc3c1CCC3)CCCC2	-0.86	·
110	O=C(O)CCCCCNCc1cccnc1	0.94	·
111	O=C(NC1COc2ccccc2C1)N1CCN(c2ccc(F)cc2)CC1 (stereo not drawn)	·	2.1
112	Cc1cc(NC(=O)CNS(=O)(=O)c2ccc3nc(C)sc3c2)n[nH]1	-0.58	-0.86
113	Cc1nc(SCC(=O)NC2CCCC2)c2c(=O)n(C)c(=O)n(C)c2n1	0.32	·
114	Cn1c(=O)c2c(nc3n2CC=NN3)n(C)c1=O	1.1	·
115	Cc1cc(-c2ccc(C)c(S(=O)(=O)Nc3ccc(C)c(N(C)C)c3)c2)on1	·	0.84
116	O=C(O)CCn1ncc2ccccc21	-2	·
117	CCCCCNc1sc(S(=O)(=O)CC)nc1S(=O)(=O)c1ccc(C)cc1	-2.9	-0.02
118	Nc1c(-c2nc(-c3ccncc3)no2)nnn1-c1ccc(Br)cc1	·	-0.33

High-throughput results deposited in PubChem BioAssay by Center for Chemical Genomics, University of Michigan.
